# AmpC nodet inh: Promiscuous and Specific Inhibitors of AmpC Beta-Lactamase (assay without detergent). AID 585, 2007. Potency, µM (titrated, usually from 28.7 µM), for inactives: at the highest dose activity change, negative = inhibition. AmpC nitrocefin hydrolysis, absorbance 480 nm, no detergent; potencies from a single point are estimates. P00811. 1.8% of 71,000 active; active = falling curve, for most hits resting on a single point; inconclusive = weak or doubtful change; inactive = flat or rising curve; note: % of control where 0% means no effect; about half of the hits show no inhibition at the top dose; a quarter of the inactives give rising signals
# Target sequence (P00811 whole entry, looked up): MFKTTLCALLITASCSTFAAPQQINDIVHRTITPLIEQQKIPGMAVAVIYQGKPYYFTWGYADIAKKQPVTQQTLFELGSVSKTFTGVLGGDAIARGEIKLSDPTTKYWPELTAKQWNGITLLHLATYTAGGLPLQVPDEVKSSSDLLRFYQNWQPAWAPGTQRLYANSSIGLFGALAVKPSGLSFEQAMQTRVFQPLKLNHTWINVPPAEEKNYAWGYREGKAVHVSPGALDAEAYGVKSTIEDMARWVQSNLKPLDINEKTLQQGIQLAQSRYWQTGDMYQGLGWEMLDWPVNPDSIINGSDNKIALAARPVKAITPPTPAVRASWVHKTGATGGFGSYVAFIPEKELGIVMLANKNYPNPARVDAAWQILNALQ
#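 AmpC, 20 mM phosphate pH 7.0; 15 min cpd preinc, RT; start with nitrocefin (800 uM stock); A480 kinetic read, 20 s intervals, 4 min. No-enzyme wells = negative control.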
# * hit, by the source's call; ! = not confirmed by another sample; [ ] = another dose, or the depositor's remark. Potency is the fitted concentration of half-maximal effect. These rows are one share of the data; rates above refer to the full screens.
SMILES,AmpC nodet inh
O=c1c2cnn(-c3ccccc3Cl)c2ncn1Cc1cccnc1,5%
O=C(CC1Sc2ccccc2NC1=O)Nc1cccc(-c2nnc3n2CCCCC3)c1 (stereo not drawn),28%
O=C(CNS(=O)(=O)c1ccccc1)NCc1ccccn1,3%
O=C(CC1(O)CCCCC1)OC1CCCC1,2%[5.75 µM]
CCOC1=NC(C(=O)O)c2ccccc2/C(=C(/C)Cl)N1 (stereo not drawn),-5%
C=CCN1C(=O)C2C(C(=O)NC)C3C=CC2(O3)C1C(=O)NCc1ccc(OC)cc1 (stereo not drawn),-16%
CCN(CC)C(=O)c1cn(CC)c(=O)c2cc(OC)c(OC)cc12,5%
COc1ccc(-c2cc(C(F)(F)F)nc(N3CCCCCC3)n2)cc1,-10%
Cc1ccc(N2CC(C(=O)OCc3ccccc3F)CC2=O)cc1 (stereo not drawn),44%
COCCn1c(=O)c(CCc2ccccc2)nc2cnc(Oc3ccc(OC)cc3)nc21,60%
Cn1c(=O)c2c(nc(CN3CCc4ccccc4C3)n2Cc2cccc(Cl)c2)n(C)c1=O,105%
c1ccc(-c2nnc(SCc3cn4ccsc4n3)o2)cc1,11%
O=C(Nc1cccnc1)c1ccccc1F,-13%
COc1ccccc1NC(=O)Cn1c(CN2CCCCC2)nc2ccccc2c1=O,29%
COc1ccccc1NC(=O)N1CCCC1C(=O)NCc1ccc(F)cc1 (stereo not drawn),8%
O=C(CCn1c(=O)sc2ccccc21)NCCCn1ccnc1,0%
Clc1ccc(CSC2=NCCCN2)cc1Cl,-4%
Cc1c(C(=O)OCC(=O)N2c3ccccc3CC2C)oc2ccccc12 (stereo not drawn),-8%
CC1CCCN(C(=O)C2c3ccccc3C(=O)N3CCc4ccccc4C23)C1 (stereo not drawn),33%
CC(=O)c1ccc(OCC(=O)NC2CCS(=O)(=O)C2)cc1 (stereo not drawn),11%
C=CCn1c(SCC(=O)NC(=O)NCc2ccco2)nc2sc(C)c(C)c2c1=O,-17%
Cc1ccc(-c2noc(CCC(=O)N3CCCC3)n2)cc1,47%
CCCCCOC(=O)NCCOC(=O)Nc1ccc(C(=O)OCC)cc1,4%
CCOCc1nnc(NC(=O)c2ccco2)s1,-6%
CC1=C(C(=O)OC(C)C)C(C)NC(=O)N1 (stereo not drawn),12%
CCN1CCN(c2cc(C)c3cc(NC(=O)c4ccc5c(c4)OCO5)ccc3n2)CC1,60%
CC(C)Oc1ccc(C(CC(=O)O)NC(=O)CSc2ncn[nH]2)cc1 (stereo not drawn),-23%
CC(C)(C)c1ccc(-c2nnc(SCC(=O)O)n2N)cc1,-15%
CCOCCn1c(CN2CCC(C)CC2)nc2c1c(=O)n(C)c(=O)n2C,11%
CC(=O)c1c(C)n([O-])c2cc(C)ccc2[n+]1=O,-10%
CCOc1ccc(-n2c(SCC(=O)NC(C)CC)nc3n[nH]c(C)c3c2=N)cc1 (stereo not drawn),17%
COCCCNC(=O)c1ccc(C(=O)NCCCOC)cc1,-10%
O=C(c1ccco1)N1CCN(C2=NS(=O)(=O)c3ccccc32)CC1,-1%
C#CCOC(=O)CCC(=O)Nc1cc(OC)nc(OC)n1,-15%
C[C@@H](N)[C@@H](C)Cc1ccccc1,-7%[5.75 µM]
O=C(c1cccc(F)c1)N1CCC[C@@]2(CCN(c3cccc(-c4ccccc4)c3)C2)C1,63%
Cc1cccc(NC(=O)C2CCN(S(=O)(=O)c3cccc4nsnc34)CC2)n1,8%
O=C(CN1CCN(CC(=O)Nc2ccccc2Cl)CC1)Nc1ccc2c(c1)OCCO2,88%
Clc1ccccc1-c1nccc(NCc2cccs2)n1,-4%
Cc1cc(C)c(NC(=O)CN2C(=O)NC3(CCCCC3)C2=O)c(C)c1,7%
O=C(COc1ccc(Cl)cc1Cl)Nc1nc2n(n1)C(c1ccccc1)CC(=O)N2 (stereo not drawn),34%
COc1ccc(-n2c(=O)c3c4c(sc3n3c(C)nnc23)CCCC4)cc1,2%
CCCc1nnc(NC(=O)CCC(=O)O)s1,3%
COC(=O)Cc1cc(=O)n2[nH]c(C)nc2n1,0%
COc1ccccc1-c1cc(C(=O)NCc2ccco2)no1,-8%
CCOC(=O)C(Sc1nnc2c3ccccc3n(CC)c2n1)C(=O)OCC,70%
COc1ccc(NC(=O)CCC2COc3ccccc3O2)c(OC)c1 (stereo not drawn),48%
CC1(C)CC(=O)C(C=NCCCN2CCCC2=O)=C(O)C1,-5%
Cc1ccc(S(=O)(=O)c2nc(NCCCn3ccnc3)sc2Cl)cc1,32%
CCOC(=O)C1CCN(S(=O)(=O)c2cccc(-c3cn4cccnc4n3)c2)CC1,61%
COC(=O)C1(Cc2ccccc2)C=C2C(=C(c3ccccc3)C(=O)C2C)CN1 (stereo not drawn),44%
O=C(NCc1cccnc1)NC1CCCCC1,6%
COc1ccc(C2C(C(=O)N3CCN(c4ccccn4)CC3)CC(=O)N2c2ccc(OC)cc2)cc1 (stereo not drawn),118%
O=C(c1ccccc1C(=O)N1CCN(c2ccccc2F)CC1)N1CCN(c2ccccc2F)CC1,129%
COc1ccccc1C(=O)n1nc(-c2ccccc2)nc1NCc1ccco1,19%
CCCC(C(=O)NC1CCCC1)N(Cc1cccs1)C(=O)c1snc(C(N)=O)c1N (stereo not drawn),31%
COc1ccc(Cn2c(=O)sc3ccccc32)cc1,-12%
CCOC(=O)N1CCN(C(=O)c2cccc(-n3c(=S)[nH]c4cc(Cl)ccc4c3=O)c2)CC1,60%
CN(C)c1ncc2nc(-c3cccc(C#N)c3)c(=O)n(C)c2n1,14%
COc1ccc(NC(=O)Nc2cc(C)ccc2OC(F)F)c(OC)c1,2%

# Continued.
SMILES,AmpC nodet inh
CCOc1ccc2nc(SCC(=O)N3CCCCCC3)c(C#N)cc2c1,15%
COCCn1nnnc1C(C(C)C)N(Cc1cccnc1)Cc1ccccc1Cl (stereo not drawn),98%
CCn1c(SCC(=O)Nc2nc(-c3ccccc3)cs2)nnc1-c1ccccc1O,-14%
S=C(c1ccc(-c2ccc(Cl)c(Cl)c2)o1)N1CCOCC1,16%
COc1cccc(C2NC(=O)c3ccccc3O2)c1OC (stereo not drawn),11%
CCn1c2ccccc2c2cc(N)ccc21,-16%
CCn1c(Cc2ccccc2)nnc1SCC(=O)Nc1ccc(S(N)(=O)=O)cc1,-11%
CCN(C(=O)c1ccco1)c1nc(CC(=O)Nc2ccc(Cl)cc2)cs1,-6%
COc1ccc2c(Cl)c(C(=O)NCCCn3ccnc3)sc2c1,32%
Cc1nc2cnc(N3CCN(C)CC3)nc2n(-c2ccccc2)c1=O,-7%
CCN(CC)c1nc(SCC(=O)O)nc(N(CC)CC)n1,-1%
COC(=O)C1C(=O)C2=C(CC1C)NC(C)=C(C(=O)OC(C)C)C2c1ccc(OC)c(O)c1 (stereo not drawn),76%
CCCS(=O)(=O)N1CCC(C(=O)NCCCN(C)Cc2ccccc2)CC1,8%
COc1ccc(CCNC(=O)CCN2C(=O)C(C)Oc3ccc(C)cc32)cc1OC (stereo not drawn),72%
COc1cccc(NC(=O)c2cccs2)c1,-12%
CC(=O)Nc1ccc(S(=O)(=O)N2CCC(c3nc4ccc(C)cc4[nH]3)CC2)cc1,14%
COc1cccc(NC(=O)Cc2ccccc2)c1,3%
CN(C(=O)CN1C(=O)c2ccccc2S1(=O)=O)c1ccccc1C(=O)O,-4%
N#CCCn1cc(/C=N/O)c(-c2ccc(-c3ccccc3)cc2)n1,8%
CCn1c(SCC(=O)Nc2ccc(Cl)cc2)nnc1C1CC1,22%
O=C(NC(NC1CCS(=O)(=O)C1)C(=O)c1ccccc1)c1ccc(Cl)cc1 (stereo not drawn),25%
S=C(c1ccc2c(c1)OCO2)N1CCCC1,0%
O=C1C2C3C=CC(CO)(O3)C2C(=O)N1c1ccccc1-c1ccccc1 (stereo not drawn),-4%
COc1ccc(CNc2ncnc3ccc(-c4ccccc4OC)cc23)c(OC)c1,54%
CCOC(=O)c1ccc(NC(=O)CCc2nc(-c3ccc(Cl)cc3)no2)cc1,-11%
COc1cc(C(O)P(=O)(OC2CCCCC2)c2ccc(N(C)C)cc2)cc(OC)c1OC (stereo not drawn),93%
Cc1cc(C)n(C(=O)CCCCCC(=O)n2nc(C)cc2C)n1,56%
COc1ccc(C(=O)/C=C/N2CCCCC2)cc1OC,60%
C/C=C/Cn1c(Br)nc2c1c(=O)n(C)c(=O)n2C,-1%
COc1ccc(C)cc1NC(=O)c1cnc2scc(C)n2c1=O,12%
CC(C)C(=O)NC(C)C(c1cccs1)N1CCOCC1 (stereo not drawn),4%
Cn1c(=O)cc(OCC(=O)N2CCN(C3CCCCC3)CC2)c2ccccc21,51%
Cn1c(=O)c2c(nc(C(=N)SCC(=O)O)n2C)n(C)c1=O,-9%[5.75 µM]
O=C(O)C1CC=CCC1C(=O)N1CCCC1 (stereo not drawn),-7%
COc1ccccc1N1CCN(C(=O)CN(c2ccccc2OC)S(=O)(=O)c2ccccc2)CC1,130%
O=C(Nc1ccccc1)N1CCC2(CC1)CCN(C(=O)c1ccncc1)CC2,5%
Cc1ccccc1-c1nc(CN2CCC(C(=O)NCc3ccco3)CC2)c(C)o1,56%
CCN1CCCC1CN(Cc1cc2c(C)cc(C)cc2[nH]c1=O)C(=O)NC1CCCCC1 (stereo not drawn),90%
CC(C)(C)NCC(O)COc1ccccc1C(C)(C)C (stereo not drawn),-16%
CCCCCn1c(CCCNC(=O)CC)nc2ccccc21,85%
CN(C)c1ncc2nc(-c3ccccc3)c(=O)n(C)c2n1,15%
c1ccc(C(Cc2nc(-c3ccncc3)no2)c2ccccc2)cc1,42%
O=C(CN1CC(=O)Oc2ccccc21)NCc1ccco1,-10%
Ic1ccc(N2CCN(Cc3c[nH]c4ncccc34)CC2)cc1,4%
O=C(c1cc2nc(-c3ccco3)cc(C(F)(F)F)n2n1)N1CCN(c2ccc(F)cc2)CC1,109%
OC(CN1C2=NCCN2c2ccccc21)c1ccccc1 (stereo not drawn),4%
CCCCn1c(SCC(N)=O)nnc1-c1cc(OC)c(OC)c(OC)c1,17%
CN1C[C@H](C(=O)N[C@]2(C)O[C@]3(O)[C@H]4CCCN4C(=O)[C@H](Cc4ccccc4)N3C2=O)C[C@H]2c3cccc4[nH]cc(c34)C[C@@H]21,102%[12.8 µM]
CCn1c(SCC(=O)Nc2nc(C)c(C)s2)nnc1-c1ccco1,37%
CCOC(=O)c1ccccc1NS(=O)(=O)c1ccccc1F,-4%
CCN(CC)S(=O)(=O)c1cc(C(=O)OCC(=O)c2ccc3c(c2)NC(=O)CO3)ccc1F,26%
CCOC(=O)c1cccc(N2C(=O)c3ccccc3S2(=O)=O)c1,16%
CCOC(=O)Nc1cc2c(cc1C(C)=O)OCO2,-6%
N#Cc1ccccc1OCCN1C(=O)c2ccccc2C1=O,-4%
CCCOc1cccc(C2C(C(=O)c3ccco3)=C(O)C(=O)N2CCN(CC)CC)c1 (stereo not drawn),1%
Cc1cc(=O)n(CC=C(Cl)Cl)c2ccccc12,22%
Cc1csc(NC(=O)C2CCCN(S(=O)(=O)c3ccc(Br)s3)C2)n1 (stereo not drawn),4%
CCN(CC)CC(=O)Nc1ccc(C)cc1Br,14%
CCOC(=O)C1=C(N)OC2=C(C(=O)CC(C)(C)C2)C1c1ccccc1OCC#N (stereo not drawn),42%
O=C(CCN1C(=O)c2ccccc2C1=O)Nc1ccc(S(=O)(=O)NC2=NCCCCC2)cc1,31%

# More results follow.
SMILES,AmpC nodet inh
Cn1c(=O)cc(N2CCCCC2)[nH]c1=O,1%
C/C(N)=C(/C#N)C(=O)CSc1nnc(COc2ccccc2Cl)o1,3%
CC(=O)c1cc2c(cc1NC(=O)c1cnc(C)cn1)OCO2,-9%
CCc1cc(=O)oc2cc(C)cc(O)c12,4µM*[single pt active]
N#Cc1c(-c2cccs2)cc(-c2ccccn2)nc1N,-1%
COc1ccc(NC(=O)NC(C)c2ccncc2)cc1OC (stereo not drawn),-1%
CC(=O)Oc1ccc2oc(=O)c3c(c2c1)CCCN3C(=O)CN1CCN(c2ncccn2)CC1,63%
CCOc1ccc2nc3cc(N=Nc4ccc(N)nc4N)ccc3c(N)c2c1,-9%[5.75 µM]
COC(=O)N1CCC2(CC1)CCN(c1cccc(-c3ccccc3)c1)CC2,18%
CO[C@]1(NC(=O)CSCC#N)C(=O)N2C(C(=O)O)=C(CSc3nnnn3C)CS[C@H]21,7.9µM*![single pt active]

# Screens: PubChem, National Center for Advancing Translational Sciences (NCATS)
